Screens (PubChem BioAssay)
FGF22 binding = binders of recombinant human FGF22 by thermal shift; AID 651658; Q9HCT0; hit rate 1.5% among 340,000; calls only at 9.99 µM; SYPRO orange fluorescence; percent of sucrose octasulfate shift, DMSO zero;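 active means melting point raised past a set limit in the mean and every replicate; inconclusive means no clear call; three in four hits are not shown here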
Target sequence (Q9HCT0 whole entry, looked up): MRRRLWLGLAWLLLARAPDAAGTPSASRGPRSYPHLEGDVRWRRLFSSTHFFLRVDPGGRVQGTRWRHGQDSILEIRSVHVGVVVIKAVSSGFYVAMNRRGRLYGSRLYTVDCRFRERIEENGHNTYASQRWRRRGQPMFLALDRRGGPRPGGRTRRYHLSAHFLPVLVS
Ecoli growth = blocks Escherichia coli growth; OD600, 23 h; active compounds read low; OD600 absorbance (no concentration beside the values); hit rate 0.21% among 330,000; AID 1053175;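 active means OD600 absorbance below the run mean of sample wells minus 3.6 SD, in any replicate, cut at about 0.56 in these data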;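 further: stock transfer was 300 nL into about 60 µL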
UCH37 DUB inh = blocks the human deubiquitinase UCH37; Q9Y5K5; purified proteasome/UCH37, Ub-AMC cleavage fluorescence; inhibition, % (test concentration not listed); hit rate 0.33% among 330,000; AID 588478;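 active means mean of two replicates above 20%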;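 further: 0% = compound-free wells with enzyme and 100% = wells lacking proteasome; stock transfer was 100 nL into about 20 µL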
Target sequence (Q9Y5K5 whole entry, looked up): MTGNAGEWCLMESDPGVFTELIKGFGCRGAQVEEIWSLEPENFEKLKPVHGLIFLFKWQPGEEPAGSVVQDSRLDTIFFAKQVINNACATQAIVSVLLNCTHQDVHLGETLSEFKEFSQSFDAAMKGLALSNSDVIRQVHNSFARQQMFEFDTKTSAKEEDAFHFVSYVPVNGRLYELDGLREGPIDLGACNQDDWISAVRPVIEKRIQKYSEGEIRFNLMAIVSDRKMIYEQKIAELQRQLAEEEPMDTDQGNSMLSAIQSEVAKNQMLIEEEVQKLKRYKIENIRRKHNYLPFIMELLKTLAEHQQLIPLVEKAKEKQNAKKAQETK
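Reagent: Ub-AMC substrate; assay system: Proteasome-associated human UCH37 deubiquitinase; controls: no-proteasome and no-compound wells; read-out: % inhibition of Ub-AMC cleavage fluorescence; timing: 30 min preincubation with enzyme, 25 min cleavage at room temperature; signal: AMC fluorescence from Ub-AMC cleavage, excitation 355 nm, emission 460 nm; buffer or medium: Tris-HCl pH 7.4 plus ovalbumin, ATP-MgCl2, DTT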
AF4-AF9 inh = MLL-AF4/AF9 protein interaction inhibition | AlphaScreen, biotin-AF4 peptide binding to FLAG-AF9 | hit rate 0.47% among 350,000 | AID 651704 | inhibition, % at 10 µM | P42568;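 active means every replicate reaching a set inhibition limit, whatever the replicate mean, cut at about 25% in these data; inconclusive means mean inhibition reaches that limit but some replicates miss it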;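 further: 0% = plate neutral control median and 100% = total signal loss; the record names both 10 and 1 µM as test concentration; the first replicate is given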
Target sequence (P42568 whole entry, looked up): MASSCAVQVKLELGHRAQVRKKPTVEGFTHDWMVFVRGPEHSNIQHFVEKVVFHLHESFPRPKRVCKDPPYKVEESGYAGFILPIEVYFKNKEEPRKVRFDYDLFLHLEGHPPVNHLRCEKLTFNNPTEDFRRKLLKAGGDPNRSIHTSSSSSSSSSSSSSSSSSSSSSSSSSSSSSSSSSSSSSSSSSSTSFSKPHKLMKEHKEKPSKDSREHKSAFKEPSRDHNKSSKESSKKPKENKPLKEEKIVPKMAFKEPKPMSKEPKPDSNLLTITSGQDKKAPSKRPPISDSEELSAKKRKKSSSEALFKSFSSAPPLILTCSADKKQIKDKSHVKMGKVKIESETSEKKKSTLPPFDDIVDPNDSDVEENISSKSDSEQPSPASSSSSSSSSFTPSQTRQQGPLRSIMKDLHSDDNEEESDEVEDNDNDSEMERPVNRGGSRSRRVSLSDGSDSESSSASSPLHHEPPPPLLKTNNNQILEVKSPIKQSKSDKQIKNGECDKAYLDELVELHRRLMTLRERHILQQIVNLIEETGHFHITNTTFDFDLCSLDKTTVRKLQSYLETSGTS
Ecoli rRNA inh = inhibits bacterial ribosomal RNA function over humanized ribosomes | E. coli WT GFP vs humanized-ribosome RFP mutants, fluorescence, 24 h; active compounds read low; DMSO median 0, no signal -100 | GFP signal change (wild-type ribosome), % (concentration not given with the values) | hit rate 1.6% among 350,000 | AID 720706;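 active means significant combined selectivity score with lowered wild-type GFP, culture density cut under 30%, mutant RFP and density less affected; inactive means any of these conditions unmet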; further: one replicate is shown; some compounds called inactive have numbers as strong as hits
Ecoli rRNA inh OD600 = further read-out of Ecoli rRNA inh, marked with its call; OD600 change, %; measured here: OD600 growth;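 optical density of the mix in the first replicate; 0 = DMSO median and -100 = no signal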
Ecoli rRNA inh RFP = recorded beside Ecoli rRNA inh, whose call it bears; RFP signal change, %; measured here: RFP humanized mutant strains;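 first replicate; 0 = DMSO median and -100 = no signal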
* hit, by the source's call; i = inactive; ? = inconclusive; . = not tested or not shown; & = joins results of further samples. Not all compounds are listed; the hit share may differ from the screen's.

SMILES	FGF22 binding	Ecoli growth	UCH37 DUB inh	AF4-AF9 inh	Ecoli rRNA inh	Ecoli rRNA inh OD600	Ecoli rRNA inh RFP
C[C@H]1CN([C@@H](C)CO)C(=O)c2cccc(NC(=O)C3CCOCC3)c2O[C@H]1CN(C)S(C)(=O)=O	i	.	.	-0.9	3	11	-0.9
O=S1(=O)CC(N2CC=CC2)CN1Cc1cn(Cc2cccc(C(F)(F)F)c2)nn1 (centres undefined)	i	.	.	6.2	1	-2	-1.1
Cc1ccc(S(=O)(=O)N(C)C[C@H]2Oc3ccc(N(C)C)cc3CC(=O)N([C@@H](C)CO)C[C@@H]2C)cc1	i	.	.	1.3	-1	0	1.3
COC(=O)c1c(N)[nH]c(C(=O)c2ccccc2)c1-c1ccc(Cl)cc1	i	.	.	1.0	12	10	7.8
Cc1ccc(S(=O)(=O)Nc2cccc3c2O[C@@H](CN(C)C)[C@@H](C)CN([C@H](C)CO)C3=O)cc1	i	.	.	-1.7	-1	2	1.0
C[C@H](NC(=O)C[C@H]1C=C[C@H](NC(=O)C2CC2)[C@@H](CO)O1)c1ccccc1	i	.	.	0.0	1	-3	-1.4
CC(C)C[C@H]1CN([C@@H](Cc2ccccc2)CN2CCC[C@@H]2CN2C(=O)C(=O)NC[C@@H]2Cc2ccc(O)cc2)C(=O)C(=O)N1CC1CCCCC1	i	.	.	2.4	-20	-26	-2.8
CCC(=O)N[C@H]1CC[C@@H](CC(=O)NCCN2CCCCC2)O[C@H]1CO	i	.	.	-1.7	-1	3	-0.8
O=C(C[C@@H]1CC[C@@H]2NC[C@H](O)COC[C@H]2O1)NCc1ccc2c(c1)OCO2	i	.	.	-0.3	2	10	0.2
C[C@@H]1CN([C@@H](C)CO)C(=O)Cc2cc(NC(=O)CCC(F)(F)F)ccc2O[C@H]1CN(C)Cc1ccc(C(=O)Nc2ccccc2N)cc1	i	.	.	0.9	-4	-10	-3.9
N#C[C@H]1[C@H](c2ccc(-c3cccc(F)c3)cc2)[C@H](CO)N1c1nc(-c2ccccc2)cs1	i	.	.	-6.8	-2	5	1.8
CCOC(=O)CCC(NC(=O)c1ccc(Nc2nc3ccccc3nc2C(=O)OCC)cc1)C(=O)OCC (centres undefined)	i	.	.	-1.0	4	13	-1.2
CCOC(=O)C1CCCN(C(=O)c2ccc(OC)c(OC)c2)CC1 (centres undefined)	i	.	.	-2.6	11	17	0.3
CCCCNC(=O)C1(C)CCN1C(=O)c1cc(OC)ccc1Br (centres undefined)	i	.	.	-5.1	5	9	-0.7
Cc1ccc(S(=O)(=O)Nc2ccc3c(c2)C(=O)N([C@H](C)CO)C[C@@H](C)[C@H](CN(C)C(=O)Nc2ccc4c(c2)OCO4)OCCCC[C@H](C)O3)cc1	i	.	.	5.4	-2	0	-0.7
CNC(=O)C[C@H]1CC[C@H]2[C@@H](COc3ccc(NC(=O)Nc4ccc(F)cc4)cc3C(=O)N2C)O1	i	.	.	0.6	-3	-2	-5.8
Cc1ccc(S(=O)(=O)Nc2cccc3c2O[C@@H](CN(C)C(=O)NC2CCCCC2)[C@H](C)CN([C@@H](C)CO)C3=O)cc1	i	.	.	-2.9	-4	-3	1.7
C[C@@H]1CN([C@@H](C)CO)C(=O)c2cccc(NS(=O)(=O)c3ccc(F)cc3)c2O[C@H]1CN(C)Cc1ccc(Cl)c(Cl)c1	i	.	.	1.0	-2	1	1.1
CN1C(=O)c2cc(NC(=O)C3CCC3)ccc2OC[C@H]2O[C@H](CC(=O)NCCc3ccncc3)CC[C@@H]21	i	.	.	-0.6	-3	0	-2.9
C[C@@H]1CCCCO[C@@H](CN(C)C(=O)NC2CCCCC2)[C@@H](C)CN([C@H](C)CO)C(=O)c2cc(NS(=O)(=O)c3ccccc3)ccc2O1	i	.	.	-6.1	1	2	-2.0
COc1ccccc1NC(=O)N[C@H]1C=C[C@@H](CC(=O)N[C@H](C)c2ccccc2)O[C@@H]1CO	i	.	.	-1.5	1	-4	-0.3
CC(=O)N(C)C[C@@H]1Oc2ncc(C#Cc3ccc(F)cc3)cc2C(=O)N([C@H](C)CO)C[C@H]1C	i	.	.	1.6	5	5	-1.0
CCCNC(=O)N1[C@@H]2c3ccc(-c4ccccc4OC)c(=O)n3C[C@@H]2[C@@H](CO)[C@@H]1C(=O)NC1CCC1	i	.	.	2.0	1	1	-3.8
C[C@@H]1CCCCO[C@@H](CN(C)C(=O)NC2CCCCC2)[C@H](C)CN([C@H](C)CO)C(=O)c2cc(NC(=O)CCCN(C)C)ccc2O1	i	.	.	1.8	2	4	0.1
COc1cccc(C2=Cc3ccc(F)cc3C(CC(C)=O)N2c2ccc(-c3cc(OC)c(OC)c(OC)c3)cc2)c1 (centres undefined)	i	.	.	0.9	-19	-3	9.7
O=C(C[C@H]1C=C[C@H](NC(=O)Nc2ccccc2)[C@@H](CO)O1)NCc1cccc(F)c1	i	.	.	-10	-1	-3	0.2
C[C@H]1CN([C@@H](C)CO)C(=O)c2cccc(NC(=O)C3CC3)c2O[C@H]1CN(C)S(=O)(=O)c1ccc(Cl)cc1	i	.	.	-3.3	-1	4	-0.1
CCOC(=O)C1(C)CCCN(C(=O)c2ccc(OC(F)F)cc2)C1 (centres undefined)	i	.	.	0.0	6	0	-0.5
COc1ccc(NC(=O)N(C)C[C@@H]2Oc3c(NS(=O)(=O)c4ccc(OC)cc4)cccc3C(=O)N([C@@H](C)CO)C[C@H]2C)cc1	i	.	.	1.6	-1	4	2.3
CC1(C)OC(=O)NC1c1ccccc1 (centres undefined)	i	.	.	-0.7	4	9	-4.0
O=C(C1CCC1)N1CC(=O)N2[C@H](CO)[C@@H](c3ccc(Br)cc3)[C@H]2C1	i	.	.	-2.5	-3	-11	-0.4
C[C@@H]1CN([C@@H](C)CO)C(=O)c2cccc(NC(=O)Nc3ccc(F)cc3)c2O[C@H]1CN(C)C(=O)NC1CCCCC1	i	.	.	-3.0	-1	-4	-0.8
CCC(=O)N(C)C[C@H]1Oc2ncc(C#CCC(C)C)cc2C(=O)N([C@@H](C)CO)C[C@H]1C	i	.	.	-5.1	-1	-3	1.1
OC[C@@H]1[C@H](c2ccc(/C=C/c3ccccc3)cc2)[C@H]2CN(Cc3cncnc3)CCCCN12	i	.	.	?	-1	8	1.1
C[C@@H]1CN([C@@H](C)CO)S(=O)(=O)c2ccc(C#C[C@@H](C)O)cc2O[C@@H]1CN(C)C(=O)CN(C)C	i	.	.	-2.6	4	9	-3.5
COc1cccc(NC(=O)C2(C)CCN2C(=O)Cc2ccc(C(C)C)cc2)c1 (centres undefined)	i	.	.	-14	-11	-24	0.0
O=C(C[C@H]1C=C[C@@H](NC(=O)Nc2ccc3c(c2)OCO3)[C@H](CO)O1)NCc1ccc(Cl)cc1	i	.	.	-0.3	-2	-2	0.5
O=C(CNC(=O)OCc1ccccc1)NC(Cc1cnc[nH]1)C(=O)O (centres undefined)	i	.	.	0.0	11	11	-0.8
O=C(Nc1ccccc1F)N[C@H]1CC[C@@H](CCNC(=O)C2CCCCC2)O[C@H]1CO	i	.	.	-0.3	-4	-8	1.4
C[C@H]1CN([C@@H](C)CO)C(=O)c2cc(C#CCN(C)C)cnc2O[C@H]1CN(C)C(=O)Nc1ccccc1F	i	.	.	-4.2	4	8	-2.0
COc1ccc(NC(=O)Nc2ccc3c(c2)[C@H]2C[C@H](CC(=O)N[C@@H](C)c4ccccc4)O[C@@H](CO)[C@H]2O3)cc1	i	.	.	-2.0	-3	5	1.1
C[C@@H]1CN([C@@H](C)CO)C(=O)c2c(c3ccccc3n2C)-c2ccccc2CO[C@H]1CN(C)C(=O)[C@H](Cc1ccccc1)N(C)C	i	.	.	3.5&7.4	-5&0	-4&2	4.3&-1.0
C[C@@H]1CN([C@H](C)CO)C(=O)c2cc(NS(=O)(=O)c3cn(C)cn3)ccc2O[C@H]1CN(C)Cc1ccc(C(=O)Nc2ccccc2N)cc1	i	.	.	-1.5	7	11	1.3
Cc1cccc(S(=O)(=O)N2C[C@H]3[C@@H](c4ccccc42)[C@H](CO)N3Cc2cccnc2)c1	i	.	.	-0.9	-10	-7	3.7
O=C(C[C@@H]1CC[C@H](NC(=O)Nc2cccc(F)c2)[C@H](CO)O1)NCC1CCCCC1	i	.	.	0.8	-2	-12	1.9
c1ccc(CNc2nc(NCC3CC3)nc3cc(-c4ccccc4)sc23)cc1	i	.	.	4.3	4	-56	13
OC(c1ccc(F)cc1)c1nc(-c2ccncc2)cs1 (centres undefined)	i	.	.	-6.7	11	20	1.6
COCC(=O)N1CCCCN2[C@H](C1)[C@H](c1ccc(-c3ccc(OC)cc3)cc1)[C@@H]2CO	i	.	.	18	0	4	0.3
CCC(=O)N(C)C[C@H]1Oc2ncc(Br)cc2C(=O)N([C@H](C)CO)C[C@H]1C	i	.	.	-1.5	11	16	1.2
CO[C@@H]1CN(C)C(=O)c2ccc(NS(C)(=O)=O)cc2OC[C@@H](C)N(S(C)(=O)=O)C[C@H]1C	i	.	.	-4.1	2	6	-2.7
Further results follow.
SMILES	FGF22 binding	Ecoli growth	UCH37 DUB inh	AF4-AF9 inh	Ecoli rRNA inh	Ecoli rRNA inh OD600	Ecoli rRNA inh RFP
O=C(C[C@@H]1CC[C@@H](NC(=O)c2ccncc2)[C@@H](CO)O1)Nc1ccccc1	i	.	.	-1.3	0	0	0.5
O=C(Cc1ccncc1)Nc1ccc2c(c1)[C@@H]1C[C@H](CC(=O)N3CCc4ccccc4C3)O[C@H](CO)[C@@H]1O2	i	.	.	11	0	1	0.0
Cc1ccc(-c2cc3nc(-c4ccccc4)cc(NCCCO)n3n2)cc1	i	.	.	-9.2	8	22	4.1
C[C@@H]1CCCCO[C@@H](CN(C)C(=O)NC2CCCCC2)[C@@H](C)CN([C@H](C)CO)C(=O)c2cc(NC(=O)C3CCCCC3)ccc2O1	i	.	.	1.4	3	12	-1.0
Cc1ccc(C(O)c2ncc(-c3ccc(C(F)(F)F)cc3)[nH]2)cc1F (centres undefined)	i	.	.	6.4	-62	-81	-17
CCN(CC)c1ccc(C(=C2C=CC(=[N+](CC)CC)C=C2)c2ccc(N(CC)CC)cc2)cc1	.	0.89	7.0	98*	.	.	.
O=c1[nH]cnc2c1ncn2C1OC(CO)C(O)C1O (centres undefined)	i	0.67	.	-3.7	.	.	.
Cc1cc(NC(=O)c2cc3ccccc3oc2=O)no1	.	0.74	-4.7	.	17	14	1.4
O=C(c1ccc(S(=O)(=O)N2CCC(c3nc4ccccc4s3)CC2)cc1)N1CCCCC1	.	0.71	-1.7	.	-2	-3	2.1
O=S(=O)(c1ccc(S(=O)(=O)N2CCN(C3CCCCC3)CC2)cc1)N1CCCCCC1	.	0.68	-1.2	.	18	11	3.4
COC(=O)C1=C(C)N(Cc2ccccc2)C(=S)NC1c1ccc(Br)cc1 (centres undefined)	i	0.75	.	.	-19	-9	-3.2

Shown with the structure last: part of the list above
| FGF22 binding | Ecoli growth | UCH37 DUB inh | AF4-AF9 inh | Ecoli rRNA inh | Ecoli rRNA inh OD600 | Ecoli rRNA inh RFP | SMILES |
| --- | --- | --- | --- | --- | --- | --- | --- |
| . | 0.71 | -1.7 | . | -2 | -3 | 2.1 | O=C(c1ccc(S(=O)(=O)N2CCC(c3nc4ccccc4s3)CC2)cc1)N1CCCCC1 |
| i | . | . | 1.4 | 3 | 12 | -1.0 | C[C@@H]1CCCCO[C@@H](CN(C)C(=O)NC2CCCCC2)[C@@H](C)CN([C@H](C)CO)C(=O)c2cc(NC(=O)C3CCCCC3)ccc2O1 |
| i | . | . | -9.2 | 8 | 22 | 4.1 | Cc1ccc(-c2cc3nc(-c4ccccc4)cc(NCCCO)n3n2)cc1 |
| i | 0.67 | . | -3.7 | . | . | . | O=c1[nH]cnc2c1ncn2C1OC(CO)C(O)C1O (centres undefined) |
